Screens (PubChem BioAssay)
STK33 kinase inh: inhibitors of purified STK33 kinase, primary screen, biochemical, ADP-Glo luminescence, homogeneous, cell-free | 320,000 compounds, 0.073% hits | MBP phosphorylation | inhibition, % at 10 µM;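 active = inhibition at or above 25%, using the most active replicate where run in duplicate; inactive = inhibition below 25%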
Target sequence (Q9BYT3 whole entry, looked up): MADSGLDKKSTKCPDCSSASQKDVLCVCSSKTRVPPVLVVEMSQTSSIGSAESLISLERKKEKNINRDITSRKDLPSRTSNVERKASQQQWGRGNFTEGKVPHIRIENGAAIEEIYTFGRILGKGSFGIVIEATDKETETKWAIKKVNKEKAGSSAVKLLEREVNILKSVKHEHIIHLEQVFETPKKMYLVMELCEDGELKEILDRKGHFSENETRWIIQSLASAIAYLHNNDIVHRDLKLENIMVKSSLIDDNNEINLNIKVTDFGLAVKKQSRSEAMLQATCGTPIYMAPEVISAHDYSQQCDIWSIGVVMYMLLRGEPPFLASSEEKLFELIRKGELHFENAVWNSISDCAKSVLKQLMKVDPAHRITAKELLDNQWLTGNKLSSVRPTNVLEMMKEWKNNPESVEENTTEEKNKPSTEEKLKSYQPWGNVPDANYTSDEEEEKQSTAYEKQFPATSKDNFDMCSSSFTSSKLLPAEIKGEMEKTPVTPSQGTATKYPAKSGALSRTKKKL
Kir21 block: inhibitors of mouse Kir2.1 inward-rectifier potassium channel; HEK293-Kir2.1, FluxOR thallium flux fluorescence; hits give low values; B-score at 10 µM; 310,000 compounds, 0.85% hits;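 active = fluorescence ratio B-score at or below minus 3 SD of library scores, with starting-brightness B-score within 2 SD, cut at about -4.2 in these data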;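 also: channel flux triggered by added potassium and thallium sulfate stimulus; B-score of peak minus minimum fluorescence over baseline after thallium stimulus; more negative B-score means stronger Kir2.1 block with less thallium influx; some compounds called inactive have numbers as strong as hits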
Target sequence (P35561 whole entry, looked up): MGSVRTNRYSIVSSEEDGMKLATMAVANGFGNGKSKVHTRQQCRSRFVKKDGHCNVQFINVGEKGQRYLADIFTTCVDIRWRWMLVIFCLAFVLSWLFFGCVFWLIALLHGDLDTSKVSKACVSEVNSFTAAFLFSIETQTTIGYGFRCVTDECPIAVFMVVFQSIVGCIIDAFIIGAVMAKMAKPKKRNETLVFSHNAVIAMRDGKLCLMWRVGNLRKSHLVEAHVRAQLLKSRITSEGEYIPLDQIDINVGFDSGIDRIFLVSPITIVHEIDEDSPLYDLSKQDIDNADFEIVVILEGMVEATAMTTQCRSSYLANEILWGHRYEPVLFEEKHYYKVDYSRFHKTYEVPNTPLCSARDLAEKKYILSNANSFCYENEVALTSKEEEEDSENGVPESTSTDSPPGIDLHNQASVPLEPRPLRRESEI
* = called active by the depositor; . = no result given. A portion of the library; most or all hits stand in other tables.

Kir21 block	STK33 kinase inh	Compound
0.01	-6.1	CCOc1ccccc1C(=O)Nc1ccc(S(=O)(=O)N2CCN(C)CC2)cc1
-0.01	-0.6	NS(=O)(=O)c1ccc(CCNC(=O)CSc2ncnc3ccccc23)cc1
-0.31	-0.5	CC1=Nc2ccccc2N=C(NC(=O)CSc2nnnn2-c2ccccc2)C1c1ccccc1 (configuration not stated)
-2.6	-1.2	NS(=O)(=O)c1cccc(NC(=O)COC(=O)CCCc2c[nH]c3ccccc23)c1
0.69	-0.6	CCCCCCCC(=O)OCC(=O)[C@@]1(O)CC[C@H]2[C@@H]3CCC4=CC(=O)CC[C@]4(C)[C@H]3[C@@H](O)C[C@@]21C
-1.3	-1.5	O=C(O)CCc1nn2c3ccccc3n(CC(=O)O)c2nc1=O
2.1	-1.3	N#Cc1ccc(OCc2nnc(-c3ccc([N+](=O)[O-])cc3)o2)cc1
-0.04	-0.4	Cn1c(=S)[nH]c2[nH]c(=O)cnc2c1=O
1.7	-1.1	Cc1cccc(C(=O)N[C@H](C(=O)Nc2cc(S(=O)(=O)N3CCCCC3)ccc2C)C(C)C)c1
-0.78	-1.9	Cc1nc2ccc(S(=O)(=O)NC(C(=O)NCc3ccc4c(c3)OCO4)C(C)C)cc2s1 (configuration not stated)
-3.6	-0.7	CCN(CC)CC(O)CN1c2ccccc2Sc2ccccc21 (configuration not stated)
-0.65	1.9	Cc1csc(N(C(=O)CCNC(=O)c2ccc([N+](=O)[O-])cc2)c2ccccc2)n1

Single records, from the list above.
Profile of O=C(O)CCc1nn2c3ccccc3n(CC(=O)O)c2nc1=O : Kir21 block: -1.3; STK33 kinase inh: -1.5
Profile of NS(=O)(=O)c1ccc(CCNC(=O)CSc2ncnc3ccccc23)cc1 : Kir21 block: -0.01; STK33 kinase inh: -0.6
Profile of Cn1c(=S)[nH]c2[nH]c(=O)cnc2c1=O : Kir21 block: -0.04; STK33 kinase inh: -0.4

The listing continues:
Kir21 block	STK33 kinase inh	Compound
1.3	-0.3	O=C(CSc1ccccc1)Nc1cccnc1
-2.7	-1.7	CCn1c(COc2ccc(C)cc2)nnc1SCC(=O)C(C)(C)C
0.51	-4.0	CCc1ccc(NC(=O)C2CC(=O)N=C(N)S2)cc1 (configuration not stated)
-0.46	-0.3	COc1ccc(C(=O)Nc2cc(Cl)ccc2Cl)c(OC)n1
0.66	1.2	COc1cc(NC(=O)c2ccc(C(C)(C)C)cc2)c(OC)cc1NC(=O)CN1CCCCC1
0.11	-1.3	COc1ccc(C2C(C(=O)Nc3cccnc3)=C(C)Nc3nc(-c4cccs4)nn32)cc1 (configuration not stated)
0.9	-0.2	Cn1c(CNC(=O)c2ccc(Cl)cc2)nnc1SCC(=O)N1CCOCC1
1.8	-1.7	CC(C)(C)c1ccc(-c2nnc(SCC(=O)c3ccc4c(c3)OCCO4)o2)cc1
0.49	-6.2	CCn1cc(/C=N/N=C2\CCC3C4CCc5cc(O)ccc5C4CC[C@]23C)c(C)n1 (some centres not stated)
-2.7	-0.7	Cc1ccccc1N1CCN(CCC(=O)Nc2ccc(F)cc2)CC1
1.8	0.1	CCN(CC)CCCNC(=O)Cn1ccc2ccccc2c1=O
0.32	-0.1	O=C(CN(c1ccc(Cl)cc1)S(=O)(=O)c1ccc(Cl)c([N+](=O)[O-])c1)NCCc1ccccc1

Entries shown so far that have a Cl atom, in the order listed:
Kir21 block	STK33 kinase inh	Compound
-0.46	-0.3	COc1ccc(C(=O)Nc2cc(Cl)ccc2Cl)c(OC)n1
0.9	-0.2	Cn1c(CNC(=O)c2ccc(Cl)cc2)nnc1SCC(=O)N1CCOCC1
0.32	-0.1	O=C(CN(c1ccc(Cl)cc1)S(=O)(=O)c1ccc(Cl)c([N+](=O)[O-])c1)NCCc1ccccc1

(next part)
Kir21 block	STK33 kinase inh	Compound
-0.29	-0.5	CCN(CC)S(=O)(=O)c1cccc(C(=O)Nc2cccnc2)c1
-0.45	-0.4	CNCCCOc1ccc(C)cc1OC
-0.91	0.9	Cc1ccc(Cl)cc1NC(=S)NCc1cccn1C
-1.5	-1.4	O=S(=O)(c1cnc(Cl)c(Cl)c1)N1CCN(c2ncccn2)CC1
-1.4	-1.6	COc1ccccc1-c1c(C)nn2c(N3CCC(C)CC3)cc(C)nc12
-0.1	0.0	COc1ccccc1NC(=O)N1CCN(Cc2ccc3c(c2)OCO3)CC1
-0.58	-0.8	Cc1cc(=O)n(-c2ccccc2Cl)[nH]1
-1.4	0.3	Cc1cccc(NC(=O)c2nc[nH]c2C(=O)N[C@@H](C)C(=O)OC(C)(C)C)c1
0.93	-0.5	O=C(CN1C(=O)NC2(CCc3ccccc32)C1=O)c1ccc(F)c(F)c1 (configuration not stated)
0.9	0.4	CC(=O)c1ccc(N2CCN(C(=O)CCS(=O)(=O)c3ccc4c(c3)CCN4C(C)=O)CC2)cc1
0.08	-0.3	Cc1ccccc1C(=O)OC1CCN(C)CC1
-0.35	0.2	O=C(O)c1nccnc1C(=O)Nc1ccccc1-c1ccccc1

Remaining list, next part.
Kir21 block	STK33 kinase inh	Compound
-0.47	0.7	Cc1cccc(OCC(=O)NC(=S)NNC(=O)c2ccncc2)c1
-0.02	-1.2	CCOc1ccc2nc(NC(=O)c3cnc(C)cn3)sc2c1
3.3	1.6	Cc1nn(S(=O)(=O)c2ccc(F)cc2)c(C)c1S(=O)(=O)N1CCOCC1
0.13	-3.0	COc1ccc(C(=O)N/N=c2\oc3ccccc3cc2C(=O)NCc2ccccc2)cc1
0.02	-0.5	CCOC(=O)N1CCN(C(=O)CN(C)S(=O)(=O)c2ccc3c(c2)C(C)(C)C(=O)N3C)CC1
0.55	-1.4	c1ccc(-c2cc3c(ccc4nonc43)nn2)cc1
-0.55	-0.8	CCCCS(=O)(=O)C(=C1Nc2ccccc2N1)S(=O)(=O)CCCC
-6.5*	-0.9	CC(OC(=O)Cc1c[nH]c2ccccc12)C(=O)Nc1ccccc1[N+](=O)[O-] (configuration not stated)
0.6	0.0	COCc1[nH]nc2c1C(c1ccc(OC)c(OC)c1)C(C#N)=C(N)O2 (configuration not stated)
-0.72	-1.9	CCCCCCCNC(=O)C1(CC2CC(c3ccc(Cl)cc3)=NO2)CCN(C(=O)Cc2ccc(F)cc2)CC1 (configuration not stated)
0.44	-0.6	Cc1c(CN2CCc3c([nH]c4ccccc34)C2C2CCCCC2)cnn1C (configuration not stated)
0.08	-0.1	Clc1ccc(-c2ccc(CN3CCCCC3)o2)cc1

(further entries)
Kir21 block	STK33 kinase inh	Compound
-3	-0.6	COC(=O)c1ccc(Oc2cc(C)nc(SC)n2)cc1
-0.12	-0.7	Cc1c(NC(=O)CN2CCN(c3ccc(F)cc3)CC2)c(=O)n(-c2ccccc2)n1C
-0.05	-0.8	CCOc1ccc(-c2c(C(=O)N/N=C(\C)c3ccncc3)nnn2-c2nonc2N)cc1
0.13	-1.2	Cc1cccc(C)c1OCCN1CCOCC1
0	-1.8	CC1(C)Cc2c(cnn2-c2ccc(F)cc2)C(NC(=O)CCn2cncn2)C1 (configuration not stated)
-0.67	-3.0	CCOc1ccc(NC(=O)Nc2ccc3c(c2)CCC3)cc1
0.15	-2.0	CCN1CCN(c2cc3c(cc2F)c(=O)c(C(=O)O)cn3C2CC2)CC1
2.8	-1.3	CCOC(=O)CCCC(=O)N1CCOCCOCCN(C(=O)CCCC(=O)OCC)CCOCCOCC1
1.5	-0.5	O=C(COc1ccc2ccccc2c1)Nc1ccccc1C(=O)O
-0.14	-1.6	O=S(=O)(c1cccc(NC(=S)N2CCN(c3ccc(F)cc3)CC2)c1)C(F)F
-0.69	-0.2	COc1ccc(S(=O)(=O)N2CCC(C(=O)NC3CCCCC3C)CC2)cc1 (configuration not stated)
-0.65	0.8	CC(C)C(=O)Nc1sc2c(c1C(N)=O)CCN(Cc1ccccc1)C2

(next part)
Kir21 block	STK33 kinase inh	Compound
0.66	-0.2	CCN1CCCC1CNC(=O)Cn1cccc1C(=O)c1ccccc1C (configuration not stated)
-0.6	1.0	O=c1[nH]cnc2sc3c(c12)CN(Cc1ccccc1)CC3
0.52	0.0	O=C(CSc1nnc2scc(-c3ccccc3)n12)N1CCCc2ccccc21
0.1	0.6	CCOC(=O)Cn1c(=O)oc2cc(S(=O)(=O)N3CCN(C(=O)OCC)CC3)ccc21
0.21	-1.0	O=[N+]([O-])c1ccccc1Nc1ccccc1
1.2	1.2	NC(=O)c1cn(-c2ccccc2)nc1-c1cccnc1
1.1	-0.3	O=C(CCc1ccccc1)NCC1OCCc2ccccc21 (configuration not stated)
-0.72	0.4	O=C(COC(=O)CCc1ccc(S(=O)(=O)N2CCOCC2)cc1)NCc1ccccc1
2.3	-0.9	CC(C)CC(N)c1cn([C@@H](CCC(=O)O)C(=O)N2CCNCC2)nn1 (some centres not stated)
-1.2	.	C/C(CC(=O)Nc1ccc(Cl)c(Cl)c1)=N\NC(=O)Cc1ccccc1
-0.54	-0.4	CN1CCN(c2ccc(Cl)cc2NS(=O)(=O)c2ccccc2Cl)CC1
-0.7	-2.5	Cc1ccccc1Cn1c2ccccc2c2cnn(CC(=O)NCc3ccco3)c(=O)c21

Next compounds
Kir21 block	STK33 kinase inh	Compound
-0.05	1.1	Cc1cc(C(=O)CCl)c(C)n1CCc1ccccc1
0.01	0.3	Cc1ccc(SC(=O)COc2ccc(C)c(C)c2)cc1
3.2	0.0	Cc1nnc(NC(=O)C2c3ccccc3Oc3ccccc32)s1
0.53	0.2	COc1cc(NS(=O)(=O)c2ccc(N/C=C\C(=O)c3ccc(OC)c(OC)c3)cc2)nc(OC)n1
0.92	-0.7	FC(F)Oc1ccc(-c2csc(NNC3=NCCCCC3)n2)cc1
1.2	-0.6	CN(Cc1cc([N+](=O)[O-])c2cccnc2c1O)C1CCCCC1
0.14	-0.2	CC(C)(C)CC(=O)Nc1nnc(SCC(=O)NCc2cccs2)s1
0.71	-2.6	O=C(Nc1ccc(Cl)cc1)c1cc(S(=O)(=O)Nc2ccccn2)ccc1Cl
0.65	-2.9	CC(C)Cc1nc(NCCN2CCOCC2)c(C#N)c2c1COC(C)(C)C2
0.31	-0.3	O=C(NCCc1ccccc1Cl)c1ccc2nc3ccccc3c(=O)n2c1
1.7	-4.4	Cc1ccccc1NC(=S)NCc1ccco1
-1	0.3	CN1CCN(C(c2cccc(C(F)(F)F)c2)c2nnnn2C(C)(C)C)CC1 (configuration not stated)

(further entries)
Kir21 block	STK33 kinase inh	Compound
-1.1	-0.6	COc1ccc(/C=N/NC(=O)c2ccc(Cl)cc2Cl)cc1COC(C)=O
0.86	-0.6	O=C(Nc1c2c(nn1-c1ccc(Cl)cc1)CS(=O)(=O)C2)c1ccccc1
-2.1	-1.3	CCCN(CCC)C1=N/C(=C\c2ccco2)C(=O)N1c1ccccc1
0.38	-0.6	Cc1cc(C(=O)O)ccc1-n1c(C)cc(/C=C(/C#N)C(=O)Nc2ccccc2)c1C
-0.02	-0.1	COc1ccc(OC)c(C(=O)NC(CC(N)=O)c2ccc(N3CCC(N4CCCCC4)CC3)c([N+](=O)[O-])c2)c1 (configuration not stated)
-1.4	-0.4	COc1ccc(C)cc1S(=O)(=O)N(CC(N)=O)Cc1ccccc1
0.45	-1.2	COC(=O)c1[nH]c2ccc(Br)cc2c1NC(=O)Oc1ccccc1
-0.73	-1.4	CN1CCN(c2ccc(NC(=O)c3cc([N+](=O)[O-])ccc3N3CCOCC3)cc2)CC1
-2.1	0.1	O=C(CN1CCCCC1)Nc1nnc(-c2ccc([N+](=O)[O-])cc2)s1
1	-0.4	CC(C)=CCCC1=CCC(/C=N/NC(N)=O)C(C)C1 (configuration not stated)
0.29	-0.1	CCCn1nc(C(=O)NCCN2CCOCC2)c2ccccc2c1=O
1.3	6.2	CC(C)c1ccc(OCC(=O)NN2C(=O)c3ccccc3C2=O)c(Br)c1

(cont.)
Kir21 block	STK33 kinase inh	Compound
-0.33	-1.4	O=C(O)c1c2c(nc3ccccc13)-c1ccccc1CC2
0.41	1.3	Cc1ccccc1NS(=O)(=O)c1ccc(C)c(C(=O)N2CCOCC2)c1
-0.3	-1.6	CCc1ccccc1N(CC(=O)OC)S(C)(=O)=O
-1.2	-0.3	COc1ccc(C2c3[nH]c4ccccc4c3C[C@H]3C(=O)N(C4CCN(Cc5ccccc5)CC4)CC(=O)N23)c(OC)c1 (some centres not stated)
-0.2	-0.2	CN(CC(=O)c1c(N)n(C)c(=O)n(C)c1=O)c1ccccc1
-1.2	-2.5	OCCNCCSc1nc(C2CCCCC2)n(-c2ccccc2Cl)n1
2.3	11	Cc1occc1C(=O)O/N=C(\N)c1ccccc1
-0.8	-1.2	CCOc1ccc(N2C(=O)CS/C2=C(\C(Cl)=C(Cl)Cl)[N+](=O)[O-])cc1
0.02	-1.3	COc1ccc(N2CC(C(=O)N[C@@H](CC(C)C)C(=O)NC3CCCC3)CC2=O)cc1 (some centres not stated)
-1.4	-1.0	CN1CCN(CC(=O)Nc2cc(N(C)C)nc3ccccc23)CC1
-0.2	-0.3	CN(C(=O)c1ccncc1)C1CCCN(Cc2ccccc2F)C1 (configuration not stated)
1.6	-5.5	Cc1nn(-c2cccc(Cl)c2)c2nc(-c3ccco3)cc(C(=O)O)c12

Next section
Kir21 block	STK33 kinase inh	Compound
0.23	-1.1	COc1ccc(-c2cc(=O)oc3c(C)c(OC(C)C(C)=O)ccc23)cc1 (configuration not stated)
0.83	-0.2	Cc1ccc(Cc2nc(-c3ccccn3)no2)cc1
-0.28	-0.8	CCOc1ccc(-n2c(SCC(=O)Nc3cc(C(=O)O)ccc3Cl)nc3ccccc3c2=O)cc1
-1.1	-0.6	COc1cccc(/C=C/C(=O)c2ccc(NS(=O)(=O)c3ccc(C)cc3)cc2)c1
0.06	-1.0	Cc1sc(NC(=O)/C=C/c2ccc3c(c2)OCO3)nc1-c1ccccc1
-0.42	-0.6	Cc1c(C(=O)N(C)CCn2ccnc2C)oc2c(F)cccc12
0.45	1.1	CC(=O)Nc1cccc(NC(=O)Nc2ccc(C(C)=O)cc2)c1
-0.73	0.2	Cc1ccnc(SCCn2c(N3CCN(c4ccccc4)CC3)nc3c2c(=O)[nH]c(=O)n3C)n1
